# Screening results deposited in PubChem by ICCB-Longwood Screening Facility, Harvard Medical School.
# BasE inh: inhibitors of Acinetobacter baumannii siderophore enzyme BasE; purified BasE, fluorescence polarization binding displacement; inhibition, % (no concentration beside the values); 84,000 tested, 0.1% active;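 active means both replicates above 25% with normal brightness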;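 further: 0% = negative plate control signal and 100% = positive plate control signal; stock transfer was 100 nL into about 30 µL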
# KSHV LANA nucl: inhibitors of KSHV LANA binding to nucleosomes | FITC-LANA1-23 / chicken nucleosome fluorescence polarization; stronger effect = lower value | z-score (concentration not given with the values) | 51,000 tested, 0.3% active | AID 720717;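 active means both repeat wells score below -2 in polarization z-score versus plate sample wells, excluding overly bright wells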;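 further: 100 nL library stock added to about 30 µL; numbers are from one replicate; some results filed as inactive read as strong as hits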
#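 Material: Purified chicken nucleosomes with FITC-labelled LANA N-terminal peptide (1-23) | Reagent: 50 nM FITC-LANA1-23 probe | Medium: TEN-BT buffer, pH 7.5 | Times: 10–45 min incubation at room temperature | Detection: Fluorescence polarization | Replication: Duplicates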
# An asterisk follows results filed as active; nt = not tested or not shown; & = joins results of further samples. A portion of the library. The share of hits here may be higher or lower than overall.
# Each structure is followed by: BasE inh, KSHV LANA nucl
> Cc1ccc(-n2ncc3c(Nc4ccccc4)ncnc32)cc1
→ 0.6, 0.006
> O=C(CCNC(=O)c1ccco1)NC1CCCc2ccccc21 (stereo not given)
→ 1.0, nt
> Cc1cccc(NC(=O)Nc2c(O)c3ccccc3oc2=O)c1C
→ 12.7, 0.138
> CC1CN(Cn2nc(-c3ccc(Br)o3)n(Cc3ccccc3)c2=S)CC(C)O1 (stereo not given)
→ 2.6, nt
> CN(Cc1nc(-c2ccc(C(F)(F)F)cc2)no1)C1CS(=O)(=O)CC1O (stereo not given)
→ -1.1, nt
> Cc1ccnc(NS(=O)(=O)c2ccc(NC(=O)c3ccc(S(=O)(=O)N4CCCCC4C)cc3)cc2)n1 (stereo not given)
→ 3.3, 0.148
> CCNc1c(NC(=O)c2cc(OC)c(OC)c(OC)c2)c(=O)oc2ccccc12
→ -0.1, 0.307
> COc1ccc(CC(=O)OC2CCCN(C)C2)cc1 (stereo not given)
→ -1.5, 0.0745
> Cc1ccc(-c2ccc(NC(=O)c3ncoc3-c3ccc(F)cc3)cc2)o1
→ 3.1, 0.89
> CCOC(=O)c1sc(/S(C)=N/C(=O)Nc2ccccc2Cl)c2c1CCC=C2 (stereo not given)
→ -23.6, nt
> O=c1c2c(-c3cccs3)csc2[nH]c(=S)n1-c1ccccc1
→ 1.3&1.8, nt
> CCn1c(C(=O)N2CCC(C(=O)NC(C)c3ccccc3)CC2)cc2sccc21 (stereo not given)
→ -0.3, 0.89
> OC(Cn1ccnc1)n1c(-c2ccccc2)nc(-c2ccccc2)c1-c1ccccc1 (stereo not given)
→ 2.5, nt
> Cc1ccc(C(=O)COC(=O)CCc2nc3ccccc3[nH]c2=O)cc1C
→ 2.7, -0.12
> COc1ccc(-c2noc(C3CCN(C(=O)OC(C)(C)C)CC3)c2C(=O)O)cc1
→ 1.4, 0.0795
> Cc1csc(SCC(=O)Nc2ccc(S(N)(=O)=O)cc2)n1
→ -0.6, nt
> C=CCNc1oc(-c2cccs2)nc1C#N
→ -4.0, -0.298
> Cc1ccc(-n2ncc3c(NCCc4ccc(S(N)(=O)=O)cc4)ncnc32)c(C)c1
→ 0.6, 0.391
> CN(C(=O)COC(=O)c1ccc(CO)cc1)c1ccccc1
→ -2.4, nt
> O=C(Cn1cnc2onc(-c3ccc(Cl)cc3)c2c1=O)NCCC1=CCCCC1
→ 0.3, -0.124
> NS(=O)(=O)c1ccc(CCNC(=O)c2c(Cl)nc3sccn23)cc1
→ 1.6, nt
> O=C(NCc1ccco1)c1ccc2c(=O)n(CCCN3CCCC3=O)c(=S)[nH]c2c1
→ -0.3, 0.037
> CCN(CC)C(=O)/C(C#N)=C/c1ccc(-c2ccc(Cl)cc2)o1
→ -4.5, nt
> CCOC(=O)Cc1csc(SCC(=O)Nc2cc(C(C)(C)C)nn2-c2ccccc2)n1
→ -0.6, nt
> CC(C)N=C(Nc1ccnn1C(C)C)c1ccccc1
→ 2.1, nt
> O=C(CCc1nc(-c2cccs2)no1)Nc1cccc(C(=O)NC2CC2)c1
→ -1.9, nt
> O=C(O)/C=C/c1ccsc1
→ 0.8, nt
> COCCN1C(=O)C2C3c4ccccc4C(c4ccccc43)C2C1=O (stereo not given)
→ 1.8, 0.273
> CC1CCN(c2nccn(-c3cccc(Cl)c3)c2=O)CC1
→ 0.4, -0.123
> O=C1CN(c2cc(Cl)cc(Cl)c2)C(=O)CN1/N=C/c1cccnc1
→ -2.4, -0.402

# (continued)
# Each structure is followed by: BasE inh, KSHV LANA nucl
> CSc1ccccc1C(=O)NCc1ccc(S(N)(=O)=O)cc1
→ -0.8, nt
> CC1CCc2c(sc3ncn(CC(=O)N4CCCC4)c(=O)c23)C1 (stereo not given)
→ 0.6, -1.14
> O=C(CCn1c(=O)oc2ccccc21)OCc1cc(=O)n2cc(Br)ccc2n1
→ -1.7, nt
> COC(=O)CSc1nnc(-c2ccccc2)n1CC1CCCO1 (stereo not given)
→ 1.0, -0.796
> Cc1cccc(NC(=O)Cn2c(=O)n(Cc3ccco3)c(=O)c3cccnc32)c1
→ -0.9, -0.695
> O=C(CSc1nc2ccccc2s1)N=C1NC(=O)CS1
→ -0.5, -0.168
> COC(=O)C1C(c2ccccc2)NC(c2ccccc2)C(C(=O)OC)S1(=O)=O (stereo not given)
→ 3.4, nt
> CCOC(=O)NCCN1C(=O)C2C3C=CC(C3)C2C1=O (stereo not given)
→ -0.1, -0.0775
> O=C(CSc1ncnc2c1nnn2Cc1ccc(F)cc1)N1CCc2ccccc21
→ -0.9, 1.24
> O=C1N(c2ccccc2)c2ccccc2C1(O)C(F)(F)F (stereo not given)
→ 1.4, nt
> COc1ccc(NC(=O)Cc2c(O)c3ccccc3[nH]c2=O)cc1
→ -0.6, 0.954
> CCN1CC(C(=O)O)CC1=O (stereo not given)
→ -0.6, -0.851
> Cc1ccccc1OCC1=NN2C(=N)/C(=C\c3cccn3-c3cccc(Cl)c3)C(=O)N=C2S1
→ -5.1, -0.41
> O=C(/C=C/c1ccc(Br)o1)OCC(=O)c1c[nH]c2ccccc12
→ 0.8, nt
> O=C(O)/C(=N\NC(=O)c1ccccc1)c1ccccc1
→ 0.0, 0.336
> COc1cc2c(cc1NC(=O)C(C)Sc1nc3ccccc3n1C)oc1ccccc12 (stereo not given)
→ 0.1, nt
> Cc1cc(C(=O)COC(=O)C2CCN(S(=O)(=O)c3cccs3)CC2)c(C)n1C
→ 0.9, nt
> N#Cc1ccc(OCC(=O)N(C2CCCCC2)C2CCS(=O)(=O)C2)cc1 (stereo not given)
→ 2.0, nt
> CC1(C)CC(N2COc3ccc4c5c(oc4c3C2)C(=O)c2ccccc2C5=O)CC(C)(C)N1
→ 4.5, -0.752
> O=C(Cn1c(=O)cnc2ccccc21)N1CCN(S(=O)(=O)c2ccccc2)CC1
→ -0.3, nt
> CNC(=O)c1ccc(Oc2ccc(C(=O)NC)cc2)cc1
→ -0.9, nt
> CC(C)NCC(O)c1ccc2ccccc2c1 (stereo not given)
→ 1.4&-2.1, 0.627&0.982&-0.456
> CCOC(=O)c1[nH]c(COC(=O)c2ccc(Cl)c(S(=O)(=O)N3CCOCC3)c2)c(C(=O)OCC)c1C
→ -4.9, nt
> CCC(Sc1nc2c(sc3ccccc32)c(=O)n1CCCOC)C(=O)N1CCOCC1 (stereo not given)
→ -2.6, 0.078
> CC(NC(=O)OC1CCCC1)(C(F)(F)F)C(F)(F)F
→ 3.2, 0.495
> CCCOC(=O)c1cc2ccccc2oc1=O
→ -0.3, nt
> Cc1noc(C)c1COC(=O)c1cc(Cl)cc(Cl)c1
→ 0.6, nt
> CCN1CCSc2ccc(C(=O)NCc3ccc4c(c3)OCO4)cc21
→ 3.4, 0.388
> O=C(NCCN1C(=O)C2C3C=CC(C3)C2C1=O)Nc1cccnc1 (stereo not given)
→ 2.3, nt
> Cn1c(SCc2ccccc2)nnc1C1CCCN1S(=O)(=O)c1ccc2c(c1)OCCO2 (stereo not given)
→ 1.9, -1.14

# (list continues)
# Each structure is followed by: BasE inh, KSHV LANA nucl
> Nc1c2c3c(sc2nc(=O)n1Cc1ccco1)CCC3
→ 5.1, 0.229
> C1=C(c2ccccc2)Nc2ncnn2C1c1cccs1 (stereo not given)
→ 39.9, nt
> CN1CCN(C(=S)NCC2CCCO2)CC1 (stereo not given)
→ 3.4, -0.376
> COc1ccc(/C=C(\NC(=O)c2ccccc2)C(=O)N2CCOCC2)cc1
→ -0.2, 0.874
> Cc1cc2c(NC(=O)COCC(=O)O)cccc2nn1
→ 3.6, nt
> CC1(C)CC(=NOC(=O)c2ccccc2)CC(C)(C)N1
→ 2.6, 0.396
> NC(=O)COC(=O)Cc1ccc(Cl)cc1
→ 3.3, nt
> CC(C)c1ccc(C2C3=C(CCCC3=O)NC3=C2C(=O)c2ccccc23)cc1 (stereo not given)
→ 2.1, nt
> CSC1=NCCN1C(=O)c1cc2ccccc2o1
→ 1.3, 0.113
> O=C(CCCCCN1C(=O)c2ccccc2C1=O)Nc1nccs1
→ 0.6, -0.454
> COc1ccc(CCNC(=O)CC(c2ccccc2)c2cc(Br)ccc2O)cc1OC (stereo not given)
→ 1.9, nt
> Cc1ccc(-n2c(-c3ccco3)nc3nc4ccccc4nc32)cc1
→ 2.7, nt
> C=CCSc1nc(O)cc(=O)n1C
→ 0.1, -0.45
> Cc1ccc2c(c1)N(CC(=O)N1CCCC1)C(=O)C(C)O2 (stereo not given)
→ -1.6, 0.434
> Cc1cccc(/C=N/N(C)C)c1
→ 1.4, nt
> CCN(CC)c1ccc(C(=O)OCC(=O)Nc2ncccn2)cc1
→ 1.2, nt
> CN1/C(=C\C=N\NC(=O)Cc2cn3ccsc3n2)C(C)(C)c2ccccc21
→ -3.4, nt
> CC(C)C(=O)N=c1sc2cccc(F)c2n1C
→ -0.8, -0.212
> CCN1CCC[C@H]1CNC(=O)c1cc(S(N)(=O)=O)ccc1OC
→ nt, 0.157&1.51
> CCOc1ccc2oc(C(=O)Nc3ccc(S(C)(=O)=O)cc3)c(C)c2c1
→ -0.1, nt
> COc1ccc(Nc2cc(C(=O)NCCN3CCCC3)c3ccccc3n2)c(OC)c1
→ 0.2, 0.73
> COc1ccc2c(c1)c(=O)oc1c(CN(C)C)c(O)ccc12
→ 0.6, nt
> CCn1cc(C(=O)O)c(=O)c2cc3c(cc21)OCO3
→ -2.1&1.3, 0.308&0.111&0.542
> Cc1onc(-c2ccccc2)c1C(=O)NCc1ccccc1
→ 1.0, nt
> CC(O)CNc1c[nH]c(=O)[nH]c1=O (stereo not given)
→ 1.4, 0.186
> CCCC(=O)Nc1cc(Cl)ccc1OC
→ 1.8, -0.217
> CCn1cc(C(=O)O)c(=O)c2cnc(N3CCCC3)nc21
→ 1.3&-1.1, 0.485&0.237
> c1ccc(-c2nc(C34CC5CC(CC(C5)C3)C4)co2)cc1
→ 1.7, nt
> COc1ccc(C#N)cc1Br
→ 2.6, nt
> Cc1sc2ncnc(N3CCC(C(=O)NC4(C)CCS(=O)(=O)C4)CC3)c2c1C (stereo not given)
→ 1.5, nt

# More compounds follow:
compound,BasE inh,KSHV LANA nucl
S=c1nc(-c2csc3c2CCCC3)[nH][nH]1,-0.9,0.524
Cc1cc(=O)n2[nH]c(C(=O)N3CCCC3)nc2n1,1.3,0.0955
O=C(NCCc1ccccc1)NC1CCCCC1,-1.7,0.081
O=C(O)CC1(CC(=O)N2CCN(C(=O)CC3(CC(=O)O)CCCCC3)CC2)CCCCC1,0.7,nt
CSc1ccc(Sc2ccc(SC)cc2)cc1,0.3,nt
COc1ccc(C(=O)NC(=O)CSc2nc3ccccc3n2CCC#N)cc1,-5.7,nt
CNC(=O)/C(C#N)=C/c1c(Oc2ccccc2)nc2ccccn2c1=O,1.8,-0.223
C#C[C@]1(O)CC[C@H]2[C@@H]3CCC4=CC(=O)CC[C@@H]4[C@H]3CC[C@@]21C,0.2,-0.569&-1.62
COc1cccc2c1OC1(CCN(C(C)C)CC1)N1N=C(c3cccs3)CC21 (stereo not given),-3.0,-0.301
S=C(NCC1CC1)Nc1ccc2[nH]ccc2c1,-2.4,nt
COC(=O)CSc1cccc2c1C(=O)CC2c1ccccc1 (stereo not given),nt,-0.064
COc1ccc(N2CCN(C(=O)COC(=O)Cc3ccccc3)CC2)cc1,1.9,nt
CCCCNS(=O)(=O)c1ccc(/C(C)=N/NC(=O)c2ccc(N)cc2)cc1,1.5,nt
COc1ccc(C(=O)CSc2nnc(C3CCCCC3)n2N)c(OC)c1,0.9,nt
CCOC(=O)CCC(=O)O[C@H]1[C@H](O[C@@H]2[C@@H](C)[C@H](O[C@H]3C[C@@](C)(OC)[C@@H](O)[C@H](C)O3)[C@@H](C)C(=O)O[C@H](CC)[C@@](C)(O)[C@H](O)[C@@H](C)C(=O)[C@H](C)C[C@@]2(C)O)O[C@H](C)C[C@@H]1N(C)C,-2.6,-0.356&-0.233

# Remaining list, next part.
compound,BasE inh,KSHV LANA nucl
CCOC(=O)c1ccc(NS(=O)(=O)c2cc(-c3cc(C)no3)ccc2C)cc1,0.6,nt
Cc1ccccc1Nc1nc(N)nc(CSc2ccc(S(=O)(=O)N(C)C)cn2)n1,1.2,nt
COc1ccc(-n2cnnc2SCCC#N)cc1,0.3,nt
Nn1c(Cc2ccccc2F)nnc1SCC(=O)c1ccc[nH]1,2.7,nt
COc1ccccc1N(CC(O)CN1CCOCC1)S(=O)(=O)c1ccc(C)cc1 (stereo not given),-1.1,nt
Cc1cccc(NC(=O)COC(=O)CN=C2NS(=O)(=O)c3ccccc32)c1C,-2.6,nt
CCOC(=O)/C=C1\SC(=O)CN1CC(=O)Nc1ccccc1,-15.8,nt
COc1cc(N2C(=O)c3ccccc3C2=O)nc(OC)n1,0.9,nt
Cc1cccc(/C=N/NC(=O)c2ccccn2)c1O,-1.1,0.911
Cc1cc(C(N)=O)c(C)n1CCCn1ccnc1,-5.3,nt
O=C(O)c1sccc1S(=O)(=O)Nc1ccccc1N1CCOCC1,0.9,nt
O=c1c(Br)c(NCc2ccco2)cnn1-c1ccccc1,-0.6,nt
O=C(NC1CC1)C1=CCN(S(=O)(=O)c2ccc(Br)cc2)CC1,0.8,1.31
